TRPML1 ag: qHTS for Agonists of the Human Mucolipin Transient Receptor Potential 1 (TRPML1). hit rate 0.12% among 410,000. TRPML1-expressing cells, Ca2+ dye fluorescence, FDSS; host cell line not named in the record; reference of the full effect not given here. Mucolipin-1 (Homo sapiens), Q9GZU1. AID 624414, 2012. activation, % (no concentration beside the values); in the data active = activation above about 50%; inconclusive = about 30% to 50%; inactive = below about 30%; further: 0% is about no effect; the text of the record puts the active cut at 80%
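Agonist activity was taken from a 110 s kinetic Ca2+ dye read on the FDSS after pinning compounds onto TRPML1-DL cells. The cells were seeded at 1,500/well with Tet inducer, incubated about 16 h, then dye-loaded at room temperature.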
D2 ag: Beta-Arrestin HTS for Positive Allosteric Modulators of the Human D2 Dopamine Receptor: Agonists; D(2) dopamine receptor (Homo sapiens), P14416; DiscoveRx PathHunter D2 beta-arrestin, luminescence, 90 min; 100% = 57 uM dopamine signal; activation, % (test concentration not listed); hit rate 0.084% among 360,000; in the data active = activation above about 40%; inconclusive = about 15% to 40%; inactive = below about 15%; further: compound concentration not given in the record; the text of the record calls up to 30% inactive
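Agonist mode: compounds alone added to overnight-plated D2 PathHunter cells for 90 min at 37 C, with 57 uM final dopamine (EC100) defining full response. Beta-arrestin recruitment detected by chemiluminescent reagent, read after 1 h at ambient temperature.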
PINK1 expr mod: A Quantitative High throughput Screen to Identify Chemical Modulators of PINK1 Expression | hit rate 0.2% among 410,000 | Potency, µM (highest dose often 76.6 µM), inactives show top-dose activation (PINK1 increase), usual class: activators | PINK1 immunofluorescence, high-content cytometry, 24 h; active = well fitted activation curve with a large enough effect; inconclusive = small, poorly fitted or top-dose-only effect; inactive = flat fitted curve, though single readings scatter; cell line not stated here;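 further: potency means the concentration at half of the fitted maximal effect; % of control where 0% means no effect; nearly all actives have a fitted effect of over 65% in size; a mitochondrial uncoupler was the plate control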
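Measures PINK1 amount and localization on or inside mitochondria by immunofluorescence. Stable cells get compounds at 5 concentrations for 24 hours before fixation and staining; CCCP controls included.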
D2 potentiator: Beta-Arrestin HTS for Positive Allosteric Modulators of the Human D2 Dopamine Receptor: Potentiators; D(2) dopamine receptor (Homo sapiens), P14416; DiscoveRx D2 beta-arrestin cells, luminescence, 90 min; 100% = 57 uM dopamine signal; potentiation, % (concentration not given with the values); hit rate 0.23% among 360,000; AID 624464, 2012; active = potentiation of 50% or more; inconclusive = 30% to 50%; inactive = 30% or less;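 further: compound concentration not given in the record; tested on top of an EC20 dose of dopamine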
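D2 cells co-treated with compound plus 50 nM dopamine (EC20) for 90 min at 37 deg C to detect potentiation. Beta-arrestin recruitment was read as enzyme-fragment luminescence after 1 h at ambient temperature. Full response was set by 57 uM dopamine.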
Six1-Eya2 blk: qHTS Assay for Inhibitors of the Six1/Eya2 Interaction; Homeobox protein SIX1 (Homo sapiens) + Protein phosphatase EYA2 (Homo sapiens), …; AlphaScreen GST-Six1/His-Eya2 binding, biochemical; stronger effect = lower value; control for the full effect not named in the record; activity change, % (concentration not given with the values); hit rate 0.56% among 360,000; AID 651725, 2012; in the data active = activity change below about -65%; inconclusive = about -30% to -65%; inactive = above about -30%; further: on the % scale 0 is the no-effect control and ±100 the full control effect
Target sequence (O00167 whole entry, looked up): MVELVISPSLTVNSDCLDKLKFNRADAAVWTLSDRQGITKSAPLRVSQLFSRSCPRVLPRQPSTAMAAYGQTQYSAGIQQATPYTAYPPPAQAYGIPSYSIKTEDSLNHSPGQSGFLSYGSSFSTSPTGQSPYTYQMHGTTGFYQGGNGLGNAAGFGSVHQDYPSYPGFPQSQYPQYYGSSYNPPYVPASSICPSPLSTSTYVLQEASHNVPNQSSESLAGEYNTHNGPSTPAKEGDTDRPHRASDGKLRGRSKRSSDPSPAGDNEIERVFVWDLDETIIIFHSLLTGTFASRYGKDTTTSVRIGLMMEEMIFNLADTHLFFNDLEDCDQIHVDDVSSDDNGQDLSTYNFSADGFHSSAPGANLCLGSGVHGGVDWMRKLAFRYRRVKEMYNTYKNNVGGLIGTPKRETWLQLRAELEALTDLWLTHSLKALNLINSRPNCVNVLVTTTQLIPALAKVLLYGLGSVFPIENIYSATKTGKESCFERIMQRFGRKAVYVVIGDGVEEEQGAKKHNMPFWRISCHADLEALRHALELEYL
Target sequence (Q15475 whole entry, looked up): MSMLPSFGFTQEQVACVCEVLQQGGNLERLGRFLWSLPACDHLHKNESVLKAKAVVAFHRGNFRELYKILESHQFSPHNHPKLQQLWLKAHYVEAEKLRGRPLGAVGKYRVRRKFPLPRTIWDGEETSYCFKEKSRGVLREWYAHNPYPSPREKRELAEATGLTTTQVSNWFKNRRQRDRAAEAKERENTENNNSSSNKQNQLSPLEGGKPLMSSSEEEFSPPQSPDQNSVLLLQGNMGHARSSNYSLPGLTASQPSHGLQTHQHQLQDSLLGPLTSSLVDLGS
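Homogeneous AlphaScreen proximity assay pairing GST-Six1 with His-tagged Eya2 (added as 5X mix: 250 nM and 500 nM) in 50 mM Tris pH 8.0, 300 mM NaCl, 1 mM TCEP. Glutathione donor and nickel acceptor beads; 1 h, 37 °C, dark.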
CtBP-E1A inh: qHTS Assay for Inhibitors of the CtBP/E1A Interaction; CtBP / adenovirus E1A interaction (AlphaScreen); AlphaScreen GST-E1A/His-CtBP binding, 1536-well; stronger effect = lower value; control for the full effect not named in the record; activity change, % (no concentration beside the values); hit rate 0.49% among 340,000; AID 651724, 2012; in the data active means activity change below about -65%; inconclusive means about -30% to -65%; inactive means above about -30%; further: on the % scale 0 is the no-effect control and ±100 the full control effect; compound concentration not given in the record
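Steps: dispense buffer (Tris pH 8.0, NaCl 300 mM, TCEP 1 mM, BSA, Tween 20); add 5X protein mix (GST-E1A, His-CtBP, 125 nM each); pin 23 nL compound; 2 h at 37 °C, dark; add 5X beads (50 ug/mL); 1 h; read.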
* hit, by the source's call; ? = inconclusive; · = not tested or not shown; & = joins results of further samples; [ ] = another dose, or the depositor's remark.

The line under a structure holds: TRPML1 ag, D2 ag, PINK1 expr mod, D2 potentiator, Six1-Eya2 blk, CtBP-E1A inh
CC(C)(C)NC(=O)C(c1cccs1)N(C(=O)C(=O)NC1CCCC1)c1ccccc1F (stereo not given)
    -0.7, -5.8, 1.0%, 8, 3, -9
CCNC(=S)NCC
    -0.4, -1.2, -0.7%, -2, 6, 5
COc1ccc2c(c1)O/C(=C\c1sccc1C)C2=O
    0.0, -6.3, -1.0%, -19, 0, -10
COC(=O)c1ccc2nc(-c3cccc(N)c3)cn2c1
    0.1, 3.2, 0.1%, 10, 24, 24
O=C(NC1CCCC1)C(c1ccccn1)N(C(=O)c1csnn1)c1ccccc1 (stereo not given)
    0.0, -7.6, 0.5%, -8, 10, 1
Cc1cn(CC(=O)N2CCN(c3ccccn3)CC2)c(=O)[nH]c1=O
    0.2, -4.3, 0.0%, ·, 3, 8
CC[C@H](C)C(N)c1cn(C(CCCN=C(N)N)C(=O)N2CCNCC2)nn1 (stereo not given in full)
    -0.4, 0.9, -0.4%, -8, 5, ·
CC(=O)OC(C(=O)NC1CCCCC1)c1ccc(C)cc1 (stereo not given)
    2.3, -2.4, -0.2%, -28, 5, 0
CCCCCC(=O)NNC(=S)NC(C)=O
    -0.3, -2.2, 0.1%, -5, -2, -9
NC(=S)N/N=C/c1ccc(-c2cccc([N+](=O)[O-])c2)o1
    -1.0, 1.0, -2.2%, -3, ?, ?
CCN1CCOC(CC(=O)Nc2ccc([N+](=O)[O-])cc2)C1=O (stereo not given)
    -0.3, -3.1, 1.6%, -13, 2, -12
CCCSc1nc2sc3c(c2c(=O)[nH]1)CCN(Cc1ccccc1)C3
    1.3, -1.3, 3.2%, -14, -3, -6
CN(CC(=O)Nc1ccc(Cl)c(Cl)c1)C(=O)CC1OC(=O)c2ccccc21 (stereo not given)
    0.9, -0.3, 0.5%, -30, -6, -2
COc1ccc(Br)c(Cn2c(C)c(C(=O)NCc3cccs3)sc2=O)c1
    0.8, -0.1, 1.4%, -1, -10, 2
Cc1ccc(S(=O)(=O)N2CCCC(NC(=O)N3CCN(c4ccccc4)CC3)C2)cc1 (stereo not given)
    0.3, -0.8, -0.4%, 4, 3, 7
CSc1ccc(CNCCCSc2ncccn2)cc1
    -0.5, 4.0, -0.3%, -13, 19, -16
Cn1c(Cn2cnc([N+](=O)[O-])n2)nnc1SCC(=O)Nc1ccc(Br)cc1
    0.3, 2.1, 0.4%, 15, 5, 11
O=C(O)c1cc(-c2ccco2)nc2cc3ccccc3cc12
    0.8, 0.8, 0.4%, -10, -22, -13
CCOC(=O)N1CCN(C(=O)c2cn(C)c3ccc(S(=O)(=O)N4CCOCC4)cc3c2=O)CC1
    0.1, -1.8, -0.3%, -2, 5, ·
CSc1nc(NC(C)(C)C)nc(Oc2ccc(=O)[nH]n2)n1
    -0.1, -1.3, -2.5%, -9, -2, 1
CCOC(=O)CC1=NN(c2ccccc2)C(=O)/C1=C\c1ccc(N(C)C)cc1
    5.1, -0.8, -1.5%, -2, 4, -2
CCNC(=S)N/N=C/c1ccc(OCC(=O)Nc2ccc(OC)cc2)c(OC)c1
    3.7, 1.2, ?, 1, 4, 1
Cn1c(CN2CCCCC2)nc2cc(NC(=O)c3ccc(Cl)cc3)ccc21
    -0.2&-0.3, 5.8, -0.6%, -3, -1, -6
CC(C)OP(=O)(CCP(=O)(OC(C)C)OC(C)C)OC(C)C
    0.3, -0.9, -0.9%, -10, -24, 2
CCN(C(C)=O)c1cnc(C=NNC(N)=S)c2ccccc12
    0.7, ?, -5.6%, 57*, -90*, ?
COc1ccc(N2CCN(C(=O)Cn3cnc4sc(C)c(S(=O)(=O)N5CCOCC5)c4c3=O)CC2)cc1
    -0.4, -2.7, 1.4%, -7, 6, 4
CCO[C@@H]1OC(C(=O)N2CCOCC2)=C[C@H](C2CCCCC2)[C@H]1CCCO
    0.0, -2.8, 1.7%, -9, 0, -1
Cc1cc(C)c2c(n1)sc1c(=O)n(Cc3ccccc3Cl)nnc12
    0.5, -4.0, -1.2%, 9, 2, -2
Cc1csc(NC(=O)c2ccc(OCC3CCCO3)cc2)n1 (stereo not given)
    0.2, 5.6, 2.1%, 2, -2, 1
Cc1ccc(/C=C/C2=NN(Cc3ccc(Cl)c(Cl)c3)C(=O)CC2)cc1
    1.8, -0.6, 20%, -8, -1, 1
Cc1ccc2cc(CN(C(=O)c3ccco3)c3ccccc3C)c(=O)[nH]c2c1
    -0.7, -1.6, -3.4%, 8, -2, -8
O=C(Cc1cccs1)N1CCN(c2nc(-c3ccc(Cl)cc3)cs2)CC1
    1.1, 0.8, -2.5%[38.3 µM], -5, -15, -13
Cc1ccc(S(=O)(=O)N2CCCC2C(=O)Nc2ccc(O)cc2)cc1 (stereo not given)
    3.9, -3.3, -1.1%, -4, 5, 2
CC(C)C[C@H]1CN([C@@H](CC(C)C)CN2CCCC2CN2C(=S)NC[C@@H]2Cc2ccc(O)cc2)C(=S)N1CCc1ccccc1 (stereo not given in full)
    -0.4, -6.3, ?, -2, -17, -3
NC(=O)c1c(N)sc2c1CCC2
    -0.2, -0.7, 1.9%, -7, -16, -24
CC/C(=C\C(=O)c1cccnc1)Nc1ccc(C)c(C)c1
    1.1, -1.3, 0.0%, -6, -8, -6
COc1ccc(OC)c(C(C)NC(=O)C23CC4CC(CC(C4)C2)C3)c1 (stereo not given)
    1.1, -3.3, 2.4%, -3, 3, -10
COC(=O)c1ccccc1OS(=O)(=O)N(C)C
    0.2, 5.9, 1.8%, -3, 5, 0
CCCN(Cc1cc2cc(C)ccc2[nH]c1=O)C(=O)c1ccccn1
    ·, 1.1, 3.6%, 5, 0, 9
Cc1ccc(S(=O)(=O)N2CCCC2)cc1C(=O)NCc1ccccn1
    0.9, -4.2, -3.1%, -4, 4, -25
CCCCCCn1c(COc2ccccc2F)nnc1SCC(=O)NC1CCS(=O)(=O)C1 (stereo not given)
    4.1, -0.2, 0.7%, -19, 1, 10
COc1ccc(C(=O)NCCSC2CCCCC2)cc1
    -0.2, -2.5, -1.8%, -18, 6, -4
OCCC1CN(Cc2ccccc2-c2ccco2)CCN1C1CCCC1 (stereo not given)
    -0.7, -5.4, -0.5%, -19, -7, 0
Cc1ccc(N2C(=O)CSC2c2cccs2)cc1 (stereo not given)
    0.3, -1.1, -4.2%[38.3 µM], 3, 7, 14
Cc1cc(C)cc(NC(=O)c2cc(Cl)sc2Cl)c1
    2.9, -1.1, 1.5%, 0, 12, 13
CCCc1c(-c2ccc(Cl)cc2)ncn1Cc1ccccc1OC
    1.0, ·, ?, ·, -8, 0
COc1cccc(CNC(=O)CCC2CCCN(C(=O)c3cccc(Cl)c3)C2)c1 (stereo not given)
    -0.6, -1.7, 0.7%, -13, 0, 5
c1ccc2c(c1)Nc1cc3ccccc3cc1O2
    -0.1, ?, 3.8%, 91*, 6, -3
O=C(CCCC(=O)OCC(=O)c1ccc(F)cc1)Nc1cc(C(F)(F)F)ccc1Cl
    -0.3, -4.0, -9.3%[38.3 µM], 0, 9, 14
COc1ccccc1Nc1nnc(SCC(=O)NC2CC2)s1
    -0.8, -3.9, 0.5%, -11, 4, ·
O=C(C1CCCN(Cc2ccccc2[N+](=O)[O-])C1)N1CCCC1 (stereo not given)
    -1.0, -2.3, -1.1%, -7, 4, -2
COc1cc(S(=O)(=O)N2CCCCCC2)ccc1Cl
    6.8, -9.2, -0.9%, -31, 9, 8
Cc1ccc(-c2nc3cc(C)c(Br)c(C)n3c2CC(C)(C)C)cc1
    6.4, -0.2, ?, -6, -4, 1
CN1CCN(S(=O)(=O)c2ccc(F)cc2)CC1
    0.1, -1.2, -0.5%, -21, 11, -5
O=C(NCCN1CCN(S(=O)(=O)c2ccc(F)cc2)CC1)C(=O)NCc1ccccc1
    -0.3, 0.5, -1.2%, 4, 3, 1
COc1ccc(/C=N/OCC(=O)N2CCCC2)c(OC)c1
    -1.2, -3.9, 0.4%, -22, 2, -1
O=C(COC(=O)c1cc(S(=O)(=O)N2CCOCC2)ccc1F)NCc1ccc2c(c1)OCO2
    0.0, 1.0, 0.7%, -2, -6, 3
O=C(Nc1ccc(NC(=O)c2cccs2)cc1)c1ccco1
    -1.0, -1.3, 4.7%, -1, 1, -2
O=C(C1CCCCC1)N1C[C@H](n2cc(-c3ccc(F)cc3)nn2)[C@@H](O)C[C@@H]1c1ccc(Cl)cc1
    0.3, -7.6, 11%, 0, -1, 1
O=C(Cn1nnc(-c2ccccc2-n2cnnn2)n1)N1CCCCC1
    -1.0, -0.5, 0.3%, 12, 3, 1

(continued)
The line under a structure holds: TRPML1 ag, D2 ag, PINK1 expr mod, D2 potentiator, Six1-Eya2 blk, CtBP-E1A inh
NC(=O)CC(NC(=O)Cc1ccc(Cl)cc1)c1ccc(NCCCN2CCCC2=O)c([N+](=O)[O-])c1 (stereo not given)
    -0.7, -3.7, 0.0%, -16, 10, 1
COc1ccc(NC(=O)CN(C)C2=NS(=O)(=O)c3ccccc32)cc1Cl
    0.1, -1.9, -2.8%, -6, -6, -6
O=C(NCc1cccnc1)NC1(C(F)(F)F)Oc2ccccc2O1
    -0.1, 3.4, 0.1%, 13, 3, -2
O=c1cc(-c2ccco2)nc(SCc2cccc(Cl)c2)[nH]1
    ·, 5.4, 4.0%, 54*, -1, ·
CCOC(=O)CSc1nnc(-c2ccccc2)c(-c2ccccc2)n1
    0.7, 0.4, 0.4%, -4, 1, -6
O=C(CNC(=O)c1ccccc1)NC1(C(=O)NC2CCCCC2)CCCCC1
    -0.1, -3.3, -0.4%, -2, 34, 7
Cc1nc(CCN2C(=O)c3ccccc3C2=O)cs1
    -0.7, 3.2, -2.6%, -14, 1, -3
Cc1cc(C)c2c3c(sc2n1)C(=O)N(c1ccccc1C)CC(=O)N3
    1.3, -1.5, -1.8%, -5, 6, 7
N#Cc1ccccc1NC(=O)CSc1nnc(-c2ccncc2)o1
    0.0, -1.4, 4.4%, -5, 3, ·
CCOc1ccccc1C(=O)N1CCOCC1
    -0.5, -1.9, -0.7%, 6, 2, 0
O=[N+]([O-])C1C(c2ccccc2)=NOC1c1ccccc1O (stereo not given)
    -0.8, 0.5, 0.8%, -9, -5, ·

Entries of single compounds as entered above.
`Cc1cc(C)c2c3c(sc2n1)C(=O)N(c1ccccc1C)CC(=O)N3` is listed with TRPML1 ag = 1.3; D2 ag = -1.5; PINK1 expr mod = -1.8%; D2 potentiator = -5; Six1-Eya2 blk = 6; CtBP-E1A inh = 7
`COc1cccc(CNC(=O)CCC2CCCN(C(=O)c3cccc(Cl)c3)C2)c1` (stereo not given) is listed with TRPML1 ag = -0.6; D2 ag = -1.7; PINK1 expr mod = 0.7%; D2 potentiator = -13; Six1-Eya2 blk = 0; CtBP-E1A inh = 5

Not a hit list. About 1.3% of those tested had a hit in this group.
